KCNQ2 block: KCNQ2 potassium channel inhibitors, primary screen, cell-based, CHO-K1, FluxOR thallium flux, B-score (AID 2156); O88943; 310,000 compounds, 1.1% hits; B-score at 10 µM; 20 min; stronger effect = lower value; only compounds with negative scores are shown here; some inactives read as strong as hits;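 active = fluorescence ratio B-score at most minus 3 library SDs, with starting brightness B-score within 2 library SDs, cut at about -5.5 in these data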
Target sequence (O88943 whole entry, looked up): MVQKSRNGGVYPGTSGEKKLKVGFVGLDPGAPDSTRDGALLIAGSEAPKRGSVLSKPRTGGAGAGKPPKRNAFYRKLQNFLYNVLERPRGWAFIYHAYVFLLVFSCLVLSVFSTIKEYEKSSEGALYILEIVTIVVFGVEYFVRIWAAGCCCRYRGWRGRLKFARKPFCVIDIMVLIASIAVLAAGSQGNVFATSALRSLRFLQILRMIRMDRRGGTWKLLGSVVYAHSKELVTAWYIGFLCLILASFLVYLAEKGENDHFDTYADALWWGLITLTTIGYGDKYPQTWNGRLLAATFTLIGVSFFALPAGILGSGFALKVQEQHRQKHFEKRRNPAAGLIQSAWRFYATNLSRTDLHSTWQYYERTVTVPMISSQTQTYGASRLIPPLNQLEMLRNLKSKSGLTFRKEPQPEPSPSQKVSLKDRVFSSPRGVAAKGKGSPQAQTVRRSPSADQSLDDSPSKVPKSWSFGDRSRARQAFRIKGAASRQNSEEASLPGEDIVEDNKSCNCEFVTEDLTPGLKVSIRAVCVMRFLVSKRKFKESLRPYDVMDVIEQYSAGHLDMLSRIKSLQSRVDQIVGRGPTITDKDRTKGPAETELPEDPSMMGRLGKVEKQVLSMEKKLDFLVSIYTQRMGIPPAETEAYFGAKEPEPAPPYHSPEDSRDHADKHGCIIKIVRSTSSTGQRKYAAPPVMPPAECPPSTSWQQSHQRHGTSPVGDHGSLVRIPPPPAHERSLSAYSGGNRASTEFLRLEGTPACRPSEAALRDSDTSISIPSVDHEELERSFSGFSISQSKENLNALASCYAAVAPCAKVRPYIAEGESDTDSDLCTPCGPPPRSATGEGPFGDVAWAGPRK
KCNQ2 block baseline: further read-out of KCNQ2 block, marked with its call; B-score; measured here: initial fluorescence intensity artifact check;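 brightness before thallium and not channel activity; 0 = typical well and far values either way flag optical interference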
* = called active by the depositor; i = inactive. These rows are one share of the data; the hit share may differ from the screen's.

Values run as follows: KCNQ2 block | KCNQ2 block baseline
COC(=O)CNC(=O)C1CCCN1C(=O)CNC(=O)OC(C)(C)C (stereo not drawn)
 : i | 2.44
COc1cc(C)c(C(=O)CC(=O)c2c(C)cc(OC)cc2C)c(C)c1
 : i | -0.58
CCn1cc(Br)c(C(=O)Nc2ccc(Cl)cc2Cl)n1
 : i | 0.1
O=C(COC(=O)/C=C/c1ccccc1Cl)NCc1ccco1
 : i | 0.36
COc1cc(NC(=O)c2ccco2)c(C(=O)OCC(=O)Nc2ncc(Cl)cc2Cl)cc1OC
 : i | 0.55
N#Cc1ccc(CSc2nnc(-c3ccncc3)o2)cc1
 : i | -0.01
O=C(CSc1nnc(-c2cccc(F)c2)o1)N1CCOCC1
 : i | -1.75
CCOC(=O)c1c(C2COc3ccccc3O2)csc1NC(=O)c1ccccc1 (stereo not drawn)
 : i | 0.37
COCc1cc(C)nc(SCC[N+](C)(C)CC(=O)c2ccccc2)c1C#N
 : i | -0.97
O=C(OC1CCOC1=O)C1CCN(S(=O)(=O)c2ccc(Cl)c(C(F)(F)F)c2)CC1 (stereo not drawn)
 : i | -0.17
CC(=O)c1c(C)[nH]c(C(=O)Nc2ccc(C)c(C)c2)c1C
 : i | 3.93
CC1CN(C(C)C)C(C)CC1OC(=O)c1ccccc1 (stereo not drawn)
 : i | -0.61
CCN(CC)CCCNC(=O)c1[nH]c(C)c(C(=O)NC2CCCCC2)c1C
 : i | -0.14
Cc1ccc(N2CC(C(=O)NCc3cccnc3)CC2=O)cc1 (stereo not drawn)
 : i | 1.71
Cc1c(NS(=O)(=O)c2ccccc2F)c(=O)n(-c2ccccc2)n1C
 : i | -0.03
COc1ccc(CNC(=O)C2CCCN2S(=O)(=O)c2ccc(C)cc2)cc1 (stereo not drawn)
 : i | 1.73
COc1ccc(Cn2ccnc2SCC(=O)NC2CCCC2)cc1
 : i | 0.81
COc1ccc(CNC(=O)COC(=O)/C=C/c2ccco2)cc1
 : i | -0.25
Cc1nc(NC(=O)COc2ccccc2)sc1C(=O)Nc1ccccc1
 : i | -0.26
Cc1ccc(SCc2c(C(=O)N/N=C/C3CC=CCC3)nnn2-c2nonc2N)cc1 (stereo not drawn)
 : i | -1.35
O=C(NCCN1CCOCC1)c1sc2ccccc2c1Cl
 : i | -1.73
COc1ccc(CN2C(=O)CS/C2=N/N=C/c2cccs2)cc1
 : i | 0.91
CCn1c(SCC(=O)NCc2ccccc2)nc2nc3c(cc2c1=O)CCCC3
 : i | -0.34
O=C(NCc1ccccc1)c1onc(CSc2ccc(Cl)cc2)c1C(=O)NCc1ccccc1
 : i | -0.48
N#CC(c1ccc(Cl)cc1)(c1ncc(C(F)(F)F)cc1Cl)N1CCOCC1 (stereo not drawn)
 : i | -3.18
O=[N+]([O-])c1cccc(OCCN2CCC(Cc3ccccc3)CC2)c1
 : -8.16* | 0.07*
O=C(c1ccc(Cl)cc1)N1CCN(c2ccnc3cc(Cl)ccc23)CC1
 : i | 0.47
Cc1ccccc1NC(=O)OCCN1CCN(Cc2ccccc2)CCC1=O
 : -6.35* | -0.79*
CCOCCCNC(=O)c1ccc(Cn2c(=O)[nH]c3ccsc3c2=O)cc1
 : i | 0.77
CCN(C(=O)COC(=O)c1ccccc1Cc1ccccc1)C1CCS(=O)(=O)C1 (stereo not drawn)
 : i | -1.13
COCCNC(=O)CN(C(=O)CCC(=O)Nc1ccccn1)c1ccccc1F
 : i | -2.63
COc1ccc(-n2nnnc2-c2cccnc2)cc1
 : i | -0.61
COc1cccc(/C=C/C2=CC(C)(C)NC(=S)N2)c1
 : i | -1.02
OCC[C@@H]1C[C@@H](O)[C@H](O)[C@@]2(OCCc3ccccc32)O1
 : i | -0.49
CCn1nc(-c2ccccc2)c2nc3ccccc3nc21
 : i | 3.57
O=S(=O)(c1ccc(NC(=S)N/N=C/c2ccc(Oc3ccccc3)cc2)cc1)N1CCOCC1
 : i | -0.97
Cc1ccc(C(=O)/C=C\C(=O)c2ccc(C)cc2)cc1
 : -5.66* | -0.57*
CSc1ncc(C(=O)Nc2ccc(Br)cn2)c(C)n1
 : i | 2.86
CC(CCc1ccccc1)NC(=O)c1cc2sccc2n1C (stereo not drawn)
 : i | -0.34
CC1CCCC/C1=N\NS(=O)(=O)c1ccc(Br)cc1 (stereo not drawn)
 : i | 0.49
CCN(CC(=O)NCc1ccc(F)cc1)C(=O)C1CCN(C(=O)Nc2ccccc2)CC1
 : i | -0.15
O=C(Nc1ccc(F)cc1)Nc1nnc(-c2ccncc2)s1
 : i | 0.66
CC(C)c1nc2c(s1)CCc1onc(-c3cccc([N+](=O)[O-])c3)c1-2
 : i | -1.38
Cc1cc(C)c(C)c(OCCCOc2cccc3cccnc23)c1
 : i | 0.02
COCCc1nn2c(=O)cc(COC(=O)c3cc(OC)c(OC)c(OC)c3)nc2s1
 : i | -0.07
O=C(NCC(=O)N1CCN(Cc2ccccc2)CC1)c1ccc(Br)cc1
 : i | 0.17
Cc1ccc(C(=O)NCC(=O)Nc2ccncc2)s1
 : i | 0.68
Cc1cccc(-c2nnc(SCC(=O)Nc3ncccn3)n2C)c1
 : i | -1.19
CS(=O)(=O)Nc1cccc(C2=NN(S(=O)(=O)c3ccccc3)C(c3ccco3)C2)c1 (stereo not drawn)
 : i | 1.47
N#Cc1c(N)nc2c3c(sc(=N)c2c1N)NC(=O)CC3c1c(F)cccc1Cl (stereo not drawn)
 : i | -0.91
CCC(=O)Oc1ccc(C(=O)Nc2cccc(C(=O)NC(C)(C)C)c2)cc1
 : i | -0.19
COC(=O)C1CCN(C(=O)COC(=O)CC(NC(N)=O)c2ccc(Cl)cc2)CC1 (stereo not drawn)
 : i | -0.25
CCCCn1c(N)c(N(Cc2ccccc2OC)C(=O)C2=COCCO2)c(=O)[nH]c1=O
 : i | -0.34
Cc1nnc(NC(=O)NCN2C(=O)C3C4C=CC(C4)C3C2=O)s1 (stereo not drawn)
 : i | 0.59
Clc1ccc(-c2nnc3c4ccccc4nc(N4CCOCC4)n23)cc1Cl
 : i | -1.39
COCCNC(=O)/C(C#N)=C/c1c(N2CC(C)OC(C)C2)nc2ccccn2c1=O (stereo not drawn)
 : i | 1.63
Cc1ccc(-n2c(CNc3ccc(F)cc3)nnc2SCC(=O)NCc2ccco2)cc1
 : i | 0.5
CN1CCN(C(=O)CCN2C(=O)S/C(=C/c3ccc(Cl)cc3)C2=O)CC1
 : i | -1.36
COc1ccc(NC(=O)c2cc(CC(C)C)nc3ccccc23)cc1
 : i | 0.12
CN(C(=O)CSc1nc2ccccc2n1CCc1ccccc1)C1CCS(=O)(=O)C1 (stereo not drawn)
 : i | -0.87

More entries
Values run as follows: KCNQ2 block | KCNQ2 block baseline
CCOC(=O)N1CCC(N2C(=O)c3ccccc3C2Nc2ccccc2C)CC1 (stereo not drawn)
 : i | 0.47
Cc1ccc(NC(=O)CN2C(=O)CCSc3ccc(S(=O)(=O)N4CCCC4)cc32)cc1C
 : i | -0.56
Cc1cc(=O)nc2c3ccccc3n(C(C)C(=O)NCCC(C)C)n12 (stereo not drawn)
 : i | -0.37
O=C1C(c2ccc(F)cc2)N(CC2COc3ccccc3O2)C(=O)CN1C1CCCCC1 (stereo not drawn)
 : i | -0.68
CC(=O)Nc1cccc(OCC(=O)/C=C2\N(C)c3ccccc3C2(C)C)c1
 : -6.18* | -1.78*
Fc1ccc(NC(=S)N2CCCc3ccccc32)cc1
 : i | -0.02
COc1cc(CN2CCNC(=O)C2CC(=O)N(C)CCCN2CCOCC2)cc(OC)c1 (stereo not drawn)
 : i | -0.17
COCCn1c(=O)[nH]c2cc(C(=O)N3CCN(c4cccc(C(F)(F)F)c4)CC3)ccc2c1=O
 : i | 0.08
OCCN1CCN(c2nc(N3CCCCC3)nc(N3CCCCC3)n2)CC1
 : i | -0.04
CCOC(=O)N1CCC(N(CCN(C)C)C(=S)Nc2ccc(OCC)cc2)CC1
 : i | -0.21
CCCN1C(=O)c2ccccc2NC1c1ccc(C)cc1 (stereo not drawn)
 : i | 0.17
COc1ccc(-c2nnnn2C(C)C)cc1
 : i | 0.27
CC(CCc1ccccc1)NC(=O)COC(=O)CC1CC2CCC1C2 (stereo not drawn)
 : i | -1.09
CC1(OC(=O)C2CCCC2)C(=O)C=C2C=C(C3CC3)OC=C2C1=O (stereo not drawn)
 : i | 0.06
CCOC(=O)c1c(NC(=O)Cn2nc([N+](=O)[O-])c(Br)c2C)sc2c1CCC(C)C2 (stereo not drawn)
 : i | -1.36
Cn1cc(C(=O)NCc2cccnc2)c(=O)c2cc(S(=O)(=O)N3CCCCCC3)ccc21
 : i | -0.12
COC(=O)/C(=C\c1ccc([N+](=O)[O-])o1)NC(=O)c1ccccc1
 : i | -2.15
CC1=NNC(=O)C1CC(=O)N/N=C(\C)c1ccco1 (stereo not drawn)
 : i | 0.48
O=C(O)c1cccc(Cn2cc(Br)cn2)c1
 : i | 1.1
Cc1cccn2c(=O)c(/C=C(\C#N)C(=O)NC3CCS(=O)(=O)C3)c(Oc3ccc(F)cc3)nc12 (stereo not drawn)
 : i | -1.01
COc1cc(C(=O)NC(=S)NCc2ccco2)cc(OC)c1OC
 : i | 2.35
Oc1ccccc1CNc1ccc(OC(F)(F)F)cc1
 : i | -0.32
O=C(Cc1cccc2ccccc12)N1CC[C@@]2(O)CCCC[C@H]2C1
 : i | 0.12
OC(c1ccccc1)c1nccn1Cc1ccccc1 (stereo not drawn)
 : i | 0.8
Fc1ccc(-c2[nH]ncc2CN2CCN(c3ccc(F)cc3)CC2)cc1
 : i | -0.62
Nc1ccccc1C(=O)NCCCN1CCOCC1
 : i | -1.55
Cc1ccc(NC2=Nc3ccccc3CS2)cc1
 : i | 1.61
Cc1cnc(C(=O)OCC(=O)c2ccc(-c3ccccc3)cc2)cn1
 : i | 1.29
Cc1oc(C(C)(C)C)cc1C(=O)NC1CCN(Cc2ccccc2)CC1
 : i | -0.87
O=C(NCCC1CCCCN1S(=O)(=O)c1ccc(Cl)cc1)C(=O)NCc1cccnc1 (stereo not drawn)
 : i | 2.26

Looked up by compound from above, five records:
Values run as follows: KCNQ2 block | KCNQ2 block baseline
O=C(Cc1cccc2ccccc12)N1CC[C@@]2(O)CCCC[C@H]2C1
 : i | 0.12
Cc1cnc(C(=O)OCC(=O)c2ccc(-c3ccccc3)cc2)cn1
 : i | 1.29
Cn1cc(C(=O)NCc2cccnc2)c(=O)c2cc(S(=O)(=O)N3CCCCCC3)ccc21
 : i | -0.12
CC1(OC(=O)C2CCCC2)C(=O)C=C2C=C(C3CC3)OC=C2C1=O (stereo not drawn)
 : i | 0.06
Cc1oc(C(C)(C)C)cc1C(=O)NC1CCN(Cc2ccccc2)CC1
 : i | -0.87

The list goes on.
Values run as follows: KCNQ2 block | KCNQ2 block baseline
O=C(COC(=O)c1ccc[nH]c1=O)NC1CCCc2ccccc21 (stereo not drawn)
 : i | -0.76
CN(C)/C=C/C(=O)/C=C/c1ccc(Cl)cc1
 : i | 2.53
O=C(NCc1ccco1)C(=O)N1CCCC1
 : i | -0.01
CCC1CCCCN1S(=O)(=O)c1ccc(NC(=O)CSc2ncccc2C(=O)O)cc1 (stereo not drawn)
 : i | 0.09
CCCn1c(=O)c2c(C(=O)OCC)cc(-c3ccco3)nc2n(CCC)c1=O
 : i | -0.58
Cc1cccc2cc(/C=N/NC(=O)CN3CCCCC3)c(Cl)nc12
 : i | 0.85
CCOc1ccc(NS(=O)(=O)c2ccc(NS(=O)(=O)c3ccc(SC)cc3)cc2)cc1
 : i | -0.15
CC1=CC(=O)C=C(C)C1=NOc1ccc([N+](=O)[O-])cc1
 : i | 0.14
O=S(Cc1cc(Oc2ccccc2)nc(-c2ccccc2)n1)c1ccccc1 (stereo not drawn)
 : i | -0.08
O=C1OCCC1Sc1nc2ccccc2n1Cc1ccccc1 (stereo not drawn)
 : i | -0.14
OCCN1CCN(c2nc(-c3ccccc3O)nc3ccccc23)CC1
 : i | -0.68
N#Cc1ccc(CN2C=NS(=O)(=O)c3ccccc32)cc1
 : i | 2.37
Cn1c(CNC(=O)c2ccc(Cl)c(Cl)c2)nnc1SCC(=O)Nc1sc2c(c1C#N)CCCC2
 : i | 0.3
C=CCC1(Cl)C(=O)C(Cl)=C(N2CCOCC2)C1(OC)OC (stereo not drawn)
 : i | -0.6
CCC(C)(C)NC(=O)c1cc([N+](=O)[O-])ccc1N1CCCCC1
 : i | -0.25
O=C(NCCCCc1ccccc1)c1ccccc1F
 : i | -0.32
CCN(CC)C(=O)C1CC(=O)N(c2ccc(F)c(Cl)c2)C1 (stereo not drawn)
 : i | -0.16
CCN(CC)S(=O)(=O)c1ccc(N/N=C/c2cc(OC)c(OC)cc2OC)nc1
 : i | 1.51
CC12CCC(C(=O)N(CC(=O)O)C1=O)C2(C)C (stereo not drawn)
 : i | 2.12
Cc1nc2cc(NC(=O)c3cccc(S(C)(=O)=O)c3)ccc2o1
 : i | -1.04
O=C1CCCN1CCC(=O)N1CCCC(Nc2ccc(F)c(F)c2)C1 (stereo not drawn)
 : i | -0.24
CC(NC(=O)C(=O)NN=C1CCCC1)c1ccccc1 (stereo not drawn)
 : i | -0.15
Cc1ccc(C(=O)NN2C(=O)CSC2=S)cc1
 : i | -0.52
Nc1cc2sc(-c3ccc(C(=O)O)cc3)nc2cc1Cl
 : i | 2.22
Cc1ccc2cc(NC(=O)c3ccc(C(C)(C)C)cc3)ccc2n1
 : i | 0.66

A second format for some results above:
O=C(NCc1ccco1)C(=O)N1CCCC1
  KCNQ2 block: i | KCNQ2 block baseline: -0.01
CCC1CCCCN1S(=O)(=O)c1ccc(NC(=O)CSc2ncccc2C(=O)O)cc1 (stereo not drawn)
  KCNQ2 block: i | KCNQ2 block baseline: 0.09
CCCn1c(=O)c2c(C(=O)OCC)cc(-c3ccco3)nc2n(CCC)c1=O
  KCNQ2 block: i | KCNQ2 block baseline: -0.58
Cc1cccc2cc(/C=N/NC(=O)CN3CCCCC3)c(Cl)nc12
  KCNQ2 block: i | KCNQ2 block baseline: 0.85

Source: PubChem
